SARS PLP yeast: inhibitors of SARS-CoV papain-like protease in yeast; S. cerevisiae expressing SARS-CoV PLpro, growth rescue; control for the full effect not named in the record; Potency, µM (doses to about 32.9 µM), for the others: at the top dose activity, positive = growth rescue; 330,000 tested, 0.19% active; active means well fitted rising curve with a large enough effect; inconclusive means small, poorly fitted or top-dose-only effect; inactive means no such curve, though single readings can be large or run the other way; note: 0% is about no effect; nearly all actives have a fitted effect of over 55% in size; growth read by luminescence after 48 h
Cruzain inh Det: cruzain (T. cruzi) inhibition with detergent; P25779; purified cruzain, Z-FR-AMC fluorescence, 0.01% Triton; Potency, µM, without a hit: max response, negative = inhibition, hits mostly inhibitors; 200,000 tested, 0.43% active; AID 1478;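 note: plate controls were neutral wells for no effect and buffer without enzyme for full effect; nearly all actives have a fitted effect of over 40% in size; top concentration of the series not given in the record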
Target sequence (P25779 123-467 limits assumed): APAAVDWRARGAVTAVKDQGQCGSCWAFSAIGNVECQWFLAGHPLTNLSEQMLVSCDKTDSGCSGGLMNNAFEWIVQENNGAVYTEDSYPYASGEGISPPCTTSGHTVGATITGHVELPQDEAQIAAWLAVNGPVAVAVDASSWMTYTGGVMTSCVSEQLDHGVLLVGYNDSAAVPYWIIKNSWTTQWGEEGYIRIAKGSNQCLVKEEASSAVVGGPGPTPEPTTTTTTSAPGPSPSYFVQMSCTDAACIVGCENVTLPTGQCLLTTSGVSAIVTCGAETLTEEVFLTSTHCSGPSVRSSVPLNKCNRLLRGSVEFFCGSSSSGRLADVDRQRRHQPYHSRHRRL
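Read-out: AMC fluorescence (360 nm excitation, 450 nm emission), four reads over 2 min, first-to-third difference used. Conditions: cruzain 1.5 nM, Z-FR-AMC 2 uM, pH 5.5 acetate, 5 mM DTT, 0.01% Triton X-100.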
RE007 growth inh: less growth of the S. pombe RE007 Vpr strain | S. pombe RE007 Vpr strain, BacTiter-Glo ATP luminescence, 24 h; control for the full effect not named in the record | Potency, µM (highest dose often 92.2 µM), for the others: top-dose activity change, negative = less growth | 360,000 tested, 0.21% active; active = well fitted falling curve with a large enough effect; inconclusive = small, poorly fitted or top-dose-only effect; inactive = no such curve, though single readings can be large or run the other way;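 note: % is set by controls: 0 for no effect and ±100 for the full control effect; nearly all actives have a fitted effect of over 50% in size; the assay follows cell death caused by Vpr and the record does not say whether a fall means rescue or toxicity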
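Fission yeast RE007 carrying one integrated HIV-1 vpr copy, seeded at OD 0.01 in PMG+AL medium with 23 nL pinned compound. Grown 24 h at 30 degrees; viability read by BacTiter-Glo luminescence after 5 min.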
NS1 inh: inhibitors of influenza NS1 protein function; S. cerevisiae slowed by influenza A NS1, growth recovery by OD600; AID 2326; 270,000 tested, 0.4% active; Potency, µM (doses to about 46.1 µM), without a hit: at the top dose activity, positive = more growth; active means well fitted rising curve with a large enough effect; inconclusive means small, poorly fitted or top-dose-only effect; inactive means no such curve, though single readings can be large or run the other way; note: nearly all actives have a fitted effect of over 50% in size
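A cell-based growth assay was used: compounds that relieve NS1-induced slow growth of budding yeast raise OD600. Assay medium was yeast nitrogen base with ammonium sulphate and -URA supplement, pH 6.0, with 2% galactose.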
Cruzain inh noDet: inhibitors of Trypanosoma cruzi cruzain without detergent; 200,000 tested, 2.3% active; P25779; Potency, µM, for inactives: max response, negative = inhibition, most hits filed as inhibitors; purified cruzain, Z-FR-AMC fluorescence, no detergent; AID 1476;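 note: plate controls were enzyme without inhibitor for no effect and buffer without enzyme for full effect; nearly all actives have a fitted effect of over 40% in size; top concentration of the series not given in the record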
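Detergent-free condition (0.00005% Triton X-100) in acetate buffer pH 5.5 with DTT. 1.5 nM enzyme and compound were pre-mixed 15 min, then 2 uM Z-FR-AMC substrate added; reaction progress from fluorescence change between first and third reads (60 s).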
LASV entry inh: inhibitors of Lassa virus binding or cell entry; Potency, µM (doses to about 37.9 µM), inactives show at the highest dose activity change, negative = inhibition, most hits filed as inhibitors; Lassa virus pseudotype entry inhibition, cell reporter; control for the full effect not named in the record; AID 540256; 300,000 tested, 1.2% active; active means well fitted inhibition curve with a large enough effect; inconclusive means small, poorly fitted or top-dose-only effect, or effect the other way; inactive means flat fitted curve, though single readings scatter; tested in HEK293 cells; note: % is set by controls: 0 for no effect and ±100 for the full control effect; nearly all actives have a fitted effect of over 50% in size; luciferase read-out
2A StopGo: FMDV 2A StopGo reporter, luciferase signal; human cells with a luciferase reporter of 2A StopGo recoding; control for the full effect not named in the record; Potency, µM (top dose mostly 57.9 µM), for inactives: at the top dose signal change, negative = less light; AID 1159524; 410,000 tested, 1.2% active; active = well fitted falling curve with a large enough effect; inconclusive = small, poorly fitted or top-dose-only effect; inactive = no such curve, though single readings can be large or run the other way; tested in HEK293T cells; note: % is set by controls: 0 for no effect and ±100 for the full control effect; nearly all actives have a fitted effect of over 45% in size; luciferase light after 4 h
Marburg entry inh: blocks Marburg virus binding to or entry into cells. AID 540276. Potency, µM (top dose mostly 37.8 µM), without a hit: at the top dose activity change, negative = inhibition, actives largely listed as inhibitors. 300,000 tested, 1.8% active. Marburg virus pseudotyped entry inhibition, cell reporter; control for the full effect not named in the record; about a third of the inactives were read at about 46 µM; active = well fitted inhibition curve with a large enough effect; inconclusive = small, poorly fitted or top-dose-only effect, or effect the other way; inactive = flat fitted curve, though single readings scatter; tested in HEK293 cells; about a fifth of its hits are not listed in these tables; note: % is set by controls: 0 for no effect and ±100 for the full control effect; luciferase read-out
Starred values were filed as active, the others as inactive; u = inconclusive; x = no result given; [ ] = remark or other dose. Unless noted, calls come from the whole dose curve; as a rule, active = well fitted curve in the direction sought with a large enough effect; inconclusive = small, poorly fitted or top-dose-only effect, or another doubt; inactive = no such curve, though single readings can be large; an effect the other way counts as inactive or inconclusive. Potency is the fitted concentration of half-maximal effect.

Values in the order: SARS PLP yeast	Cruzain inh Det	RE007 growth inh	NS1 inh	Cruzain inh noDet	LASV entry inh	2A StopGo	Marburg entry inh
- C=CCNC(=O)NC(=O)COC(=O)c1cccnc1SC
  2%	5.3%	-18%	-1%	1%	0%	u	-1%
- Cc1c(C(=O)N2CCCC2)sc(NC(=O)c2ccco2)c1C#N
  0%	-10.0%	-3%	4%[9.22 µM]	5%	-3%	1%	6%
- CC(C)(C)N(Cc1ccccc1)C(=O)COC(=O)C1CC(=O)N(Cc2ccccc2)C1 (stereo not drawn)
  x	x	-1%	x	x	5%	-10%	-1%[46.1 µM]
- O=C(NCc1ccc2c(c1)OCO2)C12CC3CC(CC(C3)C1)C2
  0%	-0.4%	7%	-4%	-3%	-17%	5%	22%
- Cc1ccc(C2=Nc3ccccc3N=C(c3ccc([N+](=O)[O-])cc3)C2)c(O)c1
  1%	-3.2%	-4%	20%	4%	1%	-18%	-13%
- CCOC(=O)C(C)Sc1cc(CS(=O)(=O)c2ccccc2)nc(-c2ccccc2)n1 (stereo not drawn)
  -7%	-3.6%	5%	17%	-3%	-4%	-29%	-29%
- COc1ccccc1N(CC(=O)NC1CCCCC1)C(=O)CCC(=O)Nc1nccs1
  0%	x	2%	4%	x	6%	16%	u
- Cc1ccc(OCC(=O)NCC2(N3CCN(C)CC3)CCCCC2)cc1C
  x	1.7%	x	x	3%	12%[46.1 µM]	-20%	u
- O=S(=O)(C=C(c1ccccc1)c1ccccc1)c1ccccc1
  -15%	-2.6%	22%	-44%	-3%	u	u	-16%[46.1 µM]
- CC(=O)Nc1cccc(C(=O)NC2CCCc3c2cnn3-c2ccc(C(C)(C)C)cc2)c1 (stereo not drawn)
  -11%	x	7%	20%	x	x	u	x
- O=C(c1ncn[nH]1)N1CCN(c2nc(-c3ccccc3)cs2)CC1
  -10%	0.0%	12%	4%	-2%	0%	12%	16%
- CC(=O)c1ccc(S(=O)(=O)Nc2cccc(-c3cn4c(n3)SCC4)c2)cc1
  -1%	x	0%	x	x	-14%	-17%	-12%[46.1 µM]
- COCCCNC(=O)CSc1nc2ccccc2c(=O)n1CCCN1CCCCC1
  1%	x	-7%	-3%	x	x	-10%	x
- Cc1c(C(=O)N2CCCCC2)c(S(=O)(=O)NCc2ccccc2Cl)c(C)n1C
  -8%	x	3%	-3%	x	-16%[46.1 µM]	58%[activator]	9%[46.1 µM]
- Cc1ccc(S(=O)(=O)N/N=C2/CC(=O)CC(C)(C)C2)cc1[N+](=O)[O-]
  0%	x	-1%	4%	x	4%	1%	-2%[46.1 µM]
- O=C(COC(=O)c1cc(Br)ccc1Cl)NC(=O)NCc1ccccc1
  -2%	-6.2%	28%	2%	11%	-5%	2%	-3%[46.1 µM]
- CC(=O)c1cccc(NC(=O)C(C)OC(=O)CCc2nc3ccccc3c(=O)[nH]2)c1 (stereo not drawn)
  -2%	x	8%	x	x	3%	10%	2%
- CN1C(=O)N(C)C2(c3ccccc3)Nn3c(s/c(=C/c4ccccc4F)c3=O)=NC12c1ccccc1 (stereo not drawn)
  5%	3.9%	x	-1%	-5%	x	x	-5%
- COc1ccccc1CNC(=O)COC(=O)c1c(C)nn(-c2ccccc2)c1Cl
  -12%	x	12%	-28%	x	x	1%	x
- Cc1ccc(S(=O)(=O)NCCc2c[nH]c3ccccc23)cc1
  -4%	x	13%	-9%	x	x	19%	x
- O=C(Nc1ccccc1)c1[nH]ncc1[N+](=O)[O-]
  0%	3.1%	-5%	-62%	5%	-15%	8%	10%
- COc1cccc(NC(=O)C(=O)NCC(c2ccc3c(c2)OCO3)N2CCN(C)CC2)c1 (stereo not drawn)
  x	-1.4%	x	x	-3%	14%[46.1 µM]	16%	x
- COc1cc(/C=N/NS(=O)(=O)c2ccc3ccccc3c2)ccc1OCc1ccc(C(=O)O)cc1
  0%	x	11%	-5%	x	u	-36%	0.89µM*
- COc1cc(CN2CCN(Cc3ccc(SC)cc3)CC2)cc(OC)c1O
  1%	x	-28%	-1%	x	-15%	u	-9%[46.1 µM]
- O=C(c1ccc2nc(-c3ccco3)c(-c3ccco3)nc2c1)N1CCC2(CC1)OCCO2
  12%	25µM*	-9%	u	u	-6%	22%	4%
- CCOc1ccc(N(CC(=O)NC2CCC(C)CC2)S(=O)(=O)c2c(C)noc2C)cc1 (stereo not drawn)
  u	x	-9%	9%	x	x	-11%	x
- Cc1cccc(/C=N/NC(=O)NC23CC4CC(CC(C4)C2)C3)n1
  -2%	x	3%	4%	x	-25%[46.1 µM]	-2%	u
- COC(=O)c1[nH]c2ccccc2c1NC(=O)c1ccccc1F
  0%	x	1%	-37%	x	x	-6%	x
- CCC(NC(=O)NNC(N)=S)(C(F)(F)F)C(F)(F)F
  19%	x	-4%	-3%	x	-11%	-7%	u
- c1ccc(N=C(c2cccs2)N2CCOCC2)cc1
  8%	-1.9%	10%	1%	-2%	12%	0%	7%[46.1 µM]
- CN(C(=O)CSc1nnc(Cc2cccs2)n1C1CC1)C1CCS(=O)(=O)C1 (stereo not drawn)
  6%	x	-1%	x	x	1%	-5%	20%
- Cc1ccc(CNC(=O)CN2CCCC(C)C2)cc1 (stereo not drawn)
  -1%	6.6%	0%	4%	-23%	u	-20%	1%
- COc1ccc(NC(=O)COc2ccccc2Cc2ccccc2)cc1S(=O)(=O)N1CCOCC1
  -1%	x	-12%	x	x	-21%[46.1 µM]	u	-28%
- COc1ccccc1CNS(=O)(=O)c1ccc2c(c1)CC(C)N2C(=O)C1CCC1 (stereo not drawn)
  -4%	x	-1%	14%	x	-24%[46.1 µM]	u	x
- Cc1ccc(-c2csc(NC(=O)C3=COCCO3)n2)cc1C
  -4%	x	u	x	x	-28%	3%	-18%[46.1 µM]
- CSc1ccc(CN(C)C(=O)c2cc(Cl)c3c(c2)OCCO3)cc1
  -30%	x	-4%	-1%	x	-30%	-15%	-7%[46.1 µM]
- O=C(NCC1CCCO1)NC1(C(F)(F)F)Oc2ccccc2O1 (stereo not drawn)
  4%	0.7%	6%	-3%	-5%	-5%	-8%	u
- COC(=O)C1(O)CC(CC(C)C)=NN1C(=O)c1ccccc1 (stereo not drawn)
  -4%	-0.1%	-1%	1%	-6%	12%	25%	10%
- O=S(=O)(c1ccc(Br)cc1)c1nc(-c2ccccc2)oc1NCc1cccnc1
  16%	-0.3%	7%	5%	-28%	-23%	13%	u
- Cc1ccc(C(C)C)cc1OCC(=O)Nc1nnc(C2CC2)s1
  -2%	x	9%	x	x	u	-14%	u
- COC(=O)c1csc2c(C(F)(F)F)cc(N3CCN(C(=O)Nc4ccccc4)CC3)nc12
  0%	x	-8%	-1%	x	x	-32%	x
- CC1CC2C3CCC4=CC(=O)CCC4(C)C3CCC2(C)C1(O)C(=O)CO (stereo not drawn)
  x	x	14%	x	x	x	-8%	17%[46.1 µM]
- O=C(Nc1ccc(Br)cc1)c1cnccn1
  -12%	5.0%	-20%	-17%	5%	7%	x	13%
- Cc1cc(Br)ccc1OCCOCCN1CCCC1
  11%	x	-2%	4%	x	x	-19%	x
- CCN(CC)c1ccc(C=NN2CCCCCC2)cc1
  x	x	0%	x	x	u	34%[activator]	u
- COc1ccc(CNC(=O)Nc2cc(C)cc(C)c2)cc1
  1%	x	-5%	-5%	x	x	11%	x
- CC(C)c1ccc(OCC(=O)NC2=NCCS2)cc1
  1%	x	-7%	x	x	u	55%[activator]	25%
- CC(C)(C)c1ccc(/C=N/NC(=O)Cc2c[nH]c3ccccc23)cc1
  -20%	-17%	-2%	-30%	u	u	-10%	15µM*
- CN(CC(=O)Nc1cccc(F)c1)CC(=O)Nc1cccc(S(=O)(=O)N2CCCCC2)c1
  -3%	x	-17%	x	x	12%	u	u
- CC(=O)NS(=O)(=O)c1ccc(NC(=S)NC(=O)C2CCC2)cc1
  -6%	x	-6%	-2%	x	u	-3%	u
- COc1cccc(NC(=O)Cn2c(=O)n(CC3CCCO3)c(=O)c3ccccc32)c1 (stereo not drawn)
  2%	-2.2%	52%	-3%	-8%	8%	12%	18%
- CCOc1cc(-c2nnc(NC(=O)c3ccco3)o2)cc(OCC)c1OCC
  x	x	2%	x	x	2%	-22%	-27%
- CCN(CC)S(=O)(=O)c1cc(NC(=O)C(=O)c2c(-c3ccccc3)cc3ccccn23)ccc1C
  -6%	-2.6%	-14%	u	u	u	-25%	u
- CC1CN(C(=O)N2CCC(C(=O)NC3CCCCCC3)CC2)c2ccccc2O1 (stereo not drawn)
  x	-2.8%	x	x	7.9µM*	5%[46.1 µM]	-7%	x
- CC(C)CN(C(=O)C1CCCC1)C1CCS(=O)(=O)C1 (stereo not drawn)
  0%	x	1%	x	x	1%	-12%	4%
- CCc1ccc(NC(=S)Nc2cc(OC)c(NC(=O)C(C)C)cc2OC)cc1
  -4%	x	17%	-3%	x	5%	-18%	15%[46.1 µM]
- CCOC(=O)Cn1nc(N2CCN(c3ccc(F)cc3)CC2)ccc1=O
  x	-2.7%	x	x	10%	8%[46.1 µM]	34%[activator]	18%[46.1 µM]
- COc1cc(NC(=O)NCCc2c(C)nn(C)c2C)cc(OC)c1OC
  x	1.1%	x	x	13%	16%[46.1 µM]	15%	x
- CCOC(=O)C1(Cc2ccccc2C)CCCN(C(=O)CCn2nccc2C)C1 (stereo not drawn)
  -1%	x	-8%	5%	x	-17%	-27%	-25%[46.1 µM]
- Cc1ccc(N/N=C/c2cccnc2)cc1
  -47%	-5.1%	23%	-23%	1%	u	10%	u
- OCc1ccccc1OCCCN1CCC(Cc2ccccc2)CC1
  -7%	x	8%	14%	x	-12%[46.1 µM]	-23%	u
- CCOc1ccc(C(=O)NCCc2sc3nc(-c4ccc(Cl)cc4)nn3c2C)cc1OCC
  x	0.1%	x	x	-11%	8%[46.1 µM]	-24%	x
- COc1ccc(C(N)=S)cc1
  u	-3.3%	14%	2%	-11%	11%	-8%	8%

From PubChem BioAssay
